# KAT2A inh: inhibitors of human GCN5L2 histone acetyltransferase; Q92830; GCN5L2 HAT assay, ThioGlo1 CoA-SH fluorescence; Potency, µM (highest dose often 58.9 µM), for the others: top-dose activity change, negative = inhibition, hits mostly inhibitors; actives 0.21% (n = 390,000); AID 504327
#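 Enzyme at 20nM final was mixed with library compounds for 15 min at room temperature. Peptide H3(1-25) at 75uM, acetyl-CoA at 70uM and ThioGlo1 at 50uM were then added. Plates were read immediately and after 20 min (Ex340nm/Em540nm).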
# FEN1 inhibitor: inhibitors of human flap endonuclease 1 | Potency, µM (series often up to 114 µM), without a hit: at the top dose activity change, negative = inhibition, hits mostly inhibitors | P39748 | actives 0.35% (n = 390,000) | Recombinant FEN1 flap cleavage, fluorescence, 15 min | AID 588795; further: nearly all actives have a fitted effect of over 65% in size
# Target sequence (P39748 whole entry, looked up): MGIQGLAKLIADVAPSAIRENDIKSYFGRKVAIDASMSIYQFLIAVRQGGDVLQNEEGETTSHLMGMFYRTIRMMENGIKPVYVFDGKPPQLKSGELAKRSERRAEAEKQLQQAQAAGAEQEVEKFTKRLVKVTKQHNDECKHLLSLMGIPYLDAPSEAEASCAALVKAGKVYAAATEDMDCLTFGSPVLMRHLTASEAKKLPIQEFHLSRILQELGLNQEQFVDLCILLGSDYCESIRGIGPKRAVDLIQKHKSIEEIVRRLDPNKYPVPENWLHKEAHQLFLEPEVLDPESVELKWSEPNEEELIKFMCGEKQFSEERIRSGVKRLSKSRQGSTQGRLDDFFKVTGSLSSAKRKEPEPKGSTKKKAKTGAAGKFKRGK
#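 With each library titrated from low to high concentration, compounds met 10 nM FEN1 for 15 min at room temperature before 50 nM substrate was added; readings at 0 and 15 min fed four-parameter Hill curve fits.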
# * marks the source's active call; other numbers are inactive results; ? = inconclusive; · = not tested or not shown; & = joins results of further samples. The call rests on the fitted dose curve; in most records, active means well fitted curve in the direction sought with a large enough effect; inconclusive means small, poorly fitted or top-dose-only effect, or another doubt; inactive means no such curve, though single readings can be large; an effect the other way counts as inactive or inconclusive. On the % scale 0 is the no-effect control and ±100 the full control effect; potency means the concentration at half of the fitted maximal effect. Not all compounds are listed, and most or all hits are left out here.
SMILES,KAT2A inh,FEN1 inhibitor
CN(CC(=O)NCCc1ccc(Cl)cc1)S(=O)(=O)c1ccc2c(c1)c(=O)n(C)c(=O)n2C,-11%,-1%
CCCc1c(C(=O)N/N=C/c2ccccc2C(F)(F)F)nnn1-c1nonc1N,3%,5%
CC[C@H](C)[C@H](NC(N)=O)C(=O)Nc1ccc(C)cc1,23%,-8%
COC(=O)/C(C#N)=C1/C=Cc2ccccc2N1,-7%,-6%
COc1ccc(C(=O)NC(=S)NCc2ccco2)cc1,-36%,1%
CC1SCCN1S(=O)(=O)c1ccc2ccccc2c1 (stereo not drawn),-2%,-6%
COc1cc2c(cc1OC)C(C(=O)N1CCCC1)C(c1ccccc1F)N(C)C2=O (stereo not drawn),-11%,-1%
CC(C)C[C@H]1CN=C(N(C)C)N1CC1CCCC1,-3%,9%
COc1ccccc1-c1cc2nc(C)c(CCC(=O)NCc3ccco3)c(C)n2n1,-1%,-5%
CSc1nccc(Oc2ccc(C#N)cc2)n1,-4%,-1%
Cc1ccc(CSCC(=O)N/N=C/c2sccc2C)cc1,-2%,3%
CCOC(CCNC(=O)CCC(=O)Nc1ccc2nc(N3CCN(C)CC3)cc(C)c2c1)OCC,-10%,-15%
CC(C)c1ccc(S(=O)(=O)N2CCN(C(=O)CN3C(=O)NC(C)(c4ccccc4)C3=O)CC2)cc1 (stereo not drawn),1%,4%
Cc1ccc(NCc2nnc(SCC(=O)NCCc3ccccc3)n2C)cc1,-6%,-1%
CC(C)CCNC(=O)Cc1c(C(=O)O)[nH]c2ccc(Cl)cc12,-4%,0%
O=C(CCn1c(=O)oc2ccc(Cl)cc21)NCCCN1CCOCC1,2%,0%
COc1ccc(OCC(=O)Nc2nnc(-c3ccco3)s2)cc1,-13%,0%
Cc1ccc2[nH]c3nc(SCC#N)nnc3c2c1,-8%,0%
CCn1c(SCC(=O)Nc2ccccc2OC)nnc1-c1cnccn1,-5%,-5%
O=C(Nc1nc2c(s1)CCCC2)c1cc(-c2ccc3c(c2)OCO3)nc2ccccc12,?,·

# Reprinted from the part before: 3 compounds, followed by the next part.
SMILES,KAT2A inh,FEN1 inhibitor
Cc1ccc2[nH]c3nc(SCC#N)nnc3c2c1,-8%,0%
CCn1c(SCC(=O)Nc2ccccc2OC)nnc1-c1cnccn1,-5%,-5%
O=C(Nc1nc2c(s1)CCCC2)c1cc(-c2ccc3c(c2)OCO3)nc2ccccc12,?,·
O=C1OCC2=C1C(c1ccccc1)CC(=O)N2c1ccccc1 (stereo not drawn),-1%,12%
CCOc1ccc(C(=O)NCC(=O)NCC2CCCCC2)cc1OCC,0%,13%
CCCCc1cc(=O)oc2cc(OS(C)(=O)=O)ccc12,0%,3%
COc1cc(NC(=O)c2ccc(Cl)cc2Cl)ccc1NC(=O)c1cccs1,12%,-11%
O=C(c1ccc(OC2CCN(C/C=C/c3ccc(F)cc3)CC2)cc1)N1CCCCC1,-1%,-9%
COc1ccc(OCC(=O)N/N=C/c2ccc(N(C)C)cc2)cc1,-12%,-19%
CCOC(=O)Cn1cc(/C=C(/C#N)C(=O)NC(C)C)c2ccccc21,0%,-3%
CCOc1ccc(C(=O)NC(=S)Nc2ncccc2C)cc1[N+](=O)[O-],0%,-8%
Cc1ccc(S(=O)(=O)c2cc3c(=O)n4cccc(C)c4nc3n(C3CCCCC3)c2=N)cc1,-4%,2%
O=C(COc1ccccc1Br)NCc1ccco1,-6%,-1%
C=CCOc1ccccc1CN1CCSCC1,-2%,5%
O=C(c1ccco1)N1CCN(C(=O)c2cc(-c3ccccc3F)no2)CC1,-5%,-4%
COc1nc(N(C#N)CC(N)=O)nc(N2CCCC2)n1,-4%,1%
O=C(c1ccccc1)c1ccccc1C(=O)c1ccccc1,?,-22%&-13%
CC(C)(C)C(O)(CC#CCN1CCCC1)c1ccccc1 (stereo not drawn),-1%,2%
NS(=O)(=O)c1ccc(CCNC(=O)CN2CCN(c3cccc(Cl)c3)CC2)cc1,0%,2%
CCOc1ccc(-c2nc(C#N)c(NCC3CCCO3)o2)cc1 (stereo not drawn),1%,-2%
CCc1cc2c(SCC(=O)O)ncnc2s1,-5%,-13%
C/C(=N\NC(=O)C(O)(c1ccccc1)c1ccccc1)c1ccc(NC(=O)CCCC(=O)O)cc1,11%,21%
COc1c(/C=N/NC(=O)[C@H]2C[C@@H]2c2ccccc2)c(CCN(C)C(C)=O)cc2c1OCO2,1%,-2%

# Six of the entries above in order of the FEN1 inhibitor value, falling.
SMILES,KAT2A inh,FEN1 inhibitor
CCCCc1cc(=O)oc2cc(OS(C)(=O)=O)ccc12,0%,3%
COc1ccc(C(=O)NC(=S)NCc2ccco2)cc1,-36%,1%
CSc1nccc(Oc2ccc(C#N)cc2)n1,-4%,-1%
CC[C@H](C)[C@H](NC(N)=O)C(=O)Nc1ccc(C)cc1,23%,-8%
O=C(c1ccc(OC2CCN(C/C=C/c3ccc(F)cc3)CC2)cc1)N1CCCCC1,-1%,-9%
COc1ccc(OCC(=O)N/N=C/c2ccc(N(C)C)cc2)cc1,-12%,-19%

# Following part.
SMILES,KAT2A inh,FEN1 inhibitor
O=C(CCc1c[nH]c2ccccc12)N1CCCC1,-2%,5%
CC(=O)N1CCn2c3ccc(C)cc3c3cccc1c32,-2%,-14%
O=C(NCCc1ccc(Cl)cc1)/C(=C/c1cccnc1)NC(=O)c1ccccc1,-2%,-1%
Cc1ccc(C)c(Nc2ccc(C(=O)NCCc3ccccc3)cn2)c1,-3%,9%
Cc1cccc(CN2CCN(C(C)C(=O)NC(C)c3ccccc3)CC2)c1 (stereo not drawn),2%,-9%
O=C(OCc1ccccc1)c1ccccc1,11%&-4%,2%
Cc1ccc(NCC(=O)N=Nc2c(O)n(C)c3ccccc23)cc1,-5%,-4%
O=C(O)CN(c1ccccc1F)S(=O)(=O)c1ccccc1,-3%,-3%
CNC(=O)COC(=O)c1cc(NC(=O)c2ccco2)c(OC)c(OC)c1,-6%,-1%
CCn1ccc(C(=O)N2CCN(c3ncccn3)CC2)n1,-2%,19%
Cc1c(C(=O)OCC(=O)Nc2ccc(N3CCOCC3)cc2)oc2ccccc12,-7%,-3%
O=C(NN1CCOCC1)c1cc(-c2ccccc2)nc2ccccc12,-11%,-17%
CCOc1ccc(NC(=O)c2ccccc2NS(=O)(=O)c2ccc(F)cc2)c([N+](=O)[O-])c1,-6%,6%
CC12Cc3ccc4ccccc4c3C=C1C[N+](C)(C)C2 (stereo not drawn),3%,-2%
O=C(Cn1nc(-c2cccc([N+](=O)[O-])c2)c2ccccc2c1=O)NCC1CCCO1 (stereo not drawn),-2%,-4%
CS(=O)(=O)N1CCC(C(=O)Nc2ccc(Cl)c(Cl)c2)CC1,-3%,-1%
CCN(CC)C(=O)N1CCN(C)CC1,2%,-1%
Cc1ccc(C(=O)COC(=O)c2cccc(NC(=O)c3ccc([N+](=O)[O-])cc3[N+](=O)[O-])c2)cc1,-11%,-4%
C=CC(=O)NCCCc1cc(C(C)(C)C)c(O)c(C(C)(C)C)c1,14%,-16%
Cc1ccccc1CN(c1ccc(C(=O)N2CCc3ccccc3C2)cc1)S(C)(=O)=O,-5%,-3%
Cc1noc(C)c1COc1ccc(C(=O)NCC(c2c(F)cccc2Cl)N(C)C)cc1 (stereo not drawn),0%,5%

# Whole records as entered above. Values in the order: KAT2A inh, FEN1 inhibitor
# `CCN(CC)C(=O)N1CCN(C)CC1` as listed: 2%, -1%
# `CNC(=O)COC(=O)c1cc(NC(=O)c2ccco2)c(OC)c(OC)c1` as listed: -6%, -1%

# Rewritten with two lines to a compound: 2 of the compounds above
# Below each SMILES: KAT2A inh | FEN1 inhibitor
- CS(=O)(=O)N1CCC(C(=O)Nc2ccc(Cl)c(Cl)c2)CC1
→ -3% | -1%
- CCN(CC)C(=O)N1CCN(C)CC1
→ 2% | -1%

# Screening results (PubChem BioAssay)
